# HPGD inh = qHTS Assay for Inhibitors of HPGD (15-Hydroxyprostaglandin Dehydrogenase) | 15-hydroxyprostaglandin dehydrogenase [NAD(+)] (Homo sapiens), P15428 | purified HPGD, NADH fluorescence kinetic, PGE2 substrate | Potency, µM, for inactives: at the highest dose activity change, negative = inhibition, actives largely listed as inhibitors | hit rate 4.3% among 150,000 | AID 894, 2007; active = well fitted inhibition curve with a large enough effect (not every such curve was filed as active); inconclusive = small, poorly fitted or top-dose-only effect, or another doubt; inactive = no such curve, though single readings can be large or run the other way;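 note: top concentration of the series not given in the record; plate controls included wells without enzyme; inactives centre near -10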
# Target sequence (P15428 whole entry, looked up): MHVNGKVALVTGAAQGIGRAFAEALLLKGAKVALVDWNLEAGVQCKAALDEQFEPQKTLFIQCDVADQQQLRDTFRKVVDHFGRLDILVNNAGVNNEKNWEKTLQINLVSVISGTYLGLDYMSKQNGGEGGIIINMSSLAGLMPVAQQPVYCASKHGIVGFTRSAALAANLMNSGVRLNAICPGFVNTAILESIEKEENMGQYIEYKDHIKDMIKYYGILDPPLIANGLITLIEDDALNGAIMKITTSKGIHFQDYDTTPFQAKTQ
#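 NADH formation kinetics: reaction with 30 uM PGE2 and 1 mM NAD+ (final), 20 nM enzyme, Tris-HCl pH 8 with Tween 20, after 15 min compound preincubation at room temperature. Fluorescence change, last versus first of five reads.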
# Active calls of the source: *; ? = inconclusive; & = joins results of further samples. % is set by controls: 0 for no effect and ±100 for the full control effect; potency is the fitted concentration of half-maximal effect. These rows are one share of the data (hit frequency here may not be typical).
SMILES,HPGD inh
C=C(C)c1cccc(C(C)(C)NC(=O)Nn2cnnc2)c1,-15.1%
O=C(COC(=O)C1CCCCC1C(=O)N1CCc2ccccc21)NCc1ccco1 (stereo unspecified),5.4%
CCc1ccc(NC(=O)CSc2nnc(Cn3c(=O)sc4ccccc43)n2C)cc1,-1.9%
COC(=O)c1c(C)[nH]c(C)c1C(=O)c1ccccc1Cc1ccccc1,-2.6%&-3.6%
O=C(C(Sc1ccccc1)c1ccccc1)N1CCN(c2ccccc2)CC1 (stereo unspecified),-0.9%
Cc1[nH]nc(N=Cc2c(O)n(C)c(=O)n(C)c2=O)c1-c1ccccc1,?
CN1CCN(C(=O)c2ccccc2N(Cc2ccccc2)S(=O)(=O)c2ccccc2)CC1,-7.7%
Cc1ccc(NS(=O)(=O)c2cc(C(N)=O)ccc2C)cc1,-6.2%
CC(C)OC(=O)c1cccc(C(=O)Oc2ccc(Br)cc2)n1,-9.9%
COc1ccc2ccccc2c1C(=O)/C=C\c1ccoc1,?
Cc1ccc(C(=O)C2OC(=O)C(C)(C)C(=O)C2(C)C)cc1 (stereo unspecified),-9.1%
CCOc1ccccc1/C=C/C(=O)c1ccc(Cl)cc1,-17.3%
COCCCNC(=O)/C(C#N)=C/c1cccc(NC(=O)c2ccccc2Cl)c1,-27.4%
Cc1cc2c3c(ccc(C)c3n1)N=CN2c1ccccc1,?
O=C(CCN1C(=O)/C(=C\c2ccccc2)SC1=S)NNC(=O)c1cccnc1,-4.9%
COc1ccc(NC(=O)Nc2c(C)n(C)n(-c3ccccc3)c2=O)cc1,-11.2%
CCCCCCCCCCCNC(=O)c1ccoc1C,-18.1%
CCOC(=O)c1[nH]c(C)c(C(=O)N(C)C)c1C,-2.7%
O=C1C=C(NCC2CCCO2)C2(CCCCC2)O1 (stereo unspecified),-4.5%
COC(=O)c1c(C)cc(C)n2c1nc1ccccc12,?
CC1=C(C(=O)OCCc2ccccc2)C(c2ccsc2)NC(=O)N1C (stereo unspecified),-27.1%
Cc1cc(NC(=O)CS(=O)(=O)c2cn(Cc3ccc(F)cc3)c3ccccc23)no1,-8.9%
COC(=O)C1=C(N)n2c(s/c(=C\c3cccnc3)c2=O)=C(C(=O)OC)C1c1cccnc1 (stereo unspecified),-15.7%
Clc1ccc(-n2ncc3c(NCc4ccco4)ncnc32)cc1,-5.3%
N#Cc1c(NC(=O)CSC2=NCCS2)sc2c1CCCC2,-19.7%

# Next section:
SMILES,HPGD inh
CCN(CC)c1ncc(C)c(=O)[nH]1,-5.7%
O=C(NC1=NCCS1)c1ccc2c(c1)C(=O)N(Cc1ccco1)C2=O,-15.5%
CCOC(=O)c1c(C)n(C)c2ccc(OCC(O)CN(CC)CC)cc12 (stereo unspecified),-8.5%
Cc1cc(O)c(C(C)C)cc1N=Cc1ccccc1O,-9.8%
CCOc1ccc2nc(NC(=S)NCc3ccccc3)sc2c1,?
Cc1cccc2cc(COC(=O)C(C)C)c(=O)[nH]c12,-30.0%
COC(=O)c1c(C)n(-c2ccc(OC)cc2)c2ccc(O)cc12,?
COc1ccc(-c2nnn(CC(=O)N(Cc3cccs3)C(C)C(=O)NCCC(C)C)n2)cc1OC (stereo unspecified),-8.3%
CCOC(=O)c1cc(-c2ccccc2)nc2c1c(C)nn2-c1ccccn1,?
COc1cc(/C=N/Nc2nc(Nc3ccc(C)cc3)nc(-n3nc(C)cc3C)n2)cc(OC)c1OC,?
Clc1nc(NCc2cccnc2)nc(N2CCOCC2)n1,-10.7%
CCOc1ccc(C2/C(=C(\O)c3c(C)[nH]c(C(=O)OC)c3C)C(=O)C(=O)N2CCN(C)C)cc1 (stereo unspecified),-7.7%
COc1ccc(OC)c(NC(=O)CC(Cc2ccccc2OC)C(=O)O)c1 (stereo unspecified),-5.5%
COc1ccc(NC(=O)c2sc3cc(C(F)(F)F)cnc3c2-c2cccs2)cc1,-12.3%
COc1cccc(N2C(=O)CC(NNC(=O)c3cccs3)C2=O)c1 (stereo unspecified),-1.4%
CCC/C=C(\CCC)C(NC(=O)OCC(C)C)c1ccc(C(=O)OC)cc1 (stereo unspecified),-7.0%&-8.8%
O=C(NCc1ccccc1)c1ccc(C2SCC(=O)N2Cc2ccccc2)cc1 (stereo unspecified),10µM*
Cc1nnc(NC(=O)c2ccc(-c3cccc(C(F)(F)F)c3)o2)s1,?
Cc1cc(N2C(=O)C(=O)/C(=C(/O)c3ccc(F)cc3)C2c2ccc(Cl)cc2)no1 (stereo unspecified),-7.8%
Cn1cccc1C(=O)NC(=O)COC(=O)c1ccccc1O,?
O=C(Nc1ccccc1)N1CCC(C(=O)N(Cc2ccco2)Cc2cccs2)CC1,-13.9%
Cc1ccc2nsnc2c1S(=O)(=O)N1CCN(CCc2ccccc2)CC1,-1.5%
Cc1cnc(C(=O)OCC(=O)NC(C)C)cn1,-3.0%
Cc1ccc(-n2c(C)cc(/C=N/NC(=O)c3ccncc3)c2C)cc1,-6.0%
O=C(N[C@@H](c1ccccc1)[C@@H]1C[C@H]1C(=O)NCc1ccccn1)OCc1ccccc1,-7.1%&-12.2%

# 5 compounds out of the list above, sorted by the value under HPGD inh, highest first:
SMILES,HPGD inh
COc1cccc(N2C(=O)CC(NNC(=O)c3cccs3)C2=O)c1 (stereo unspecified),-1.4%
Cc1cnc(C(=O)OCC(=O)NC(C)C)cn1,-3.0%
CCN(CC)c1ncc(C)c(=O)[nH]1,-5.7%
Cc1ccc(-n2c(C)cc(/C=N/NC(=O)c3ccncc3)c2C)cc1,-6.0%
CCOC(=O)c1c(C)n(C)c2ccc(OCC(O)CN(CC)CC)cc12 (stereo unspecified),-8.5%

# Of the compounds above, 2 have a cyano group:
SMILES,HPGD inh
COCCCNC(=O)/C(C#N)=C/c1cccc(NC(=O)c2ccccc2Cl)c1,-27.4%
N#Cc1c(NC(=O)CSC2=NCCS2)sc2c1CCCC2,-19.7%

# (list continues)
SMILES,HPGD inh
CNCCC(Oc1ccccc1C)c1ccccc1 (stereo unspecified),-17.3%
COCCNC(=O)c1onc(CCl)c1C(=O)OC,-15.7%
Cc1cccc(NC(=O)COc2ccc(Br)cc2)n1,-13.3%
Cc1ccccc1C(=O)Nc1ccccc1,?
CCOc1ccccc1C(=O)Nn1c(C2CCC2)nc2ccccc2c1=O,-2.7%
FC(F)(F)c1cnc(N2CCC(=NOCc3ccc(Cl)cc3)CC2)c(Cl)c1,-12.8%
Cc1ccc(/C=C/C(=O)Nc2nccs2)o1,25.1µM*
COc1ccccc1NC(=O)C(NC(=O)OC(C)(C)C)C(C)OCc1ccccc1 (stereo unspecified),-4.0%
COc1ccc(Cl)c(NCCC(=O)O)c1,-13.9%
O=C(CNCCO)N1CCc2ccccc21,-12.7%
OCC(O)C(O)C(O)C(O)CO (stereo unspecified),-9.9%
COc1cc(/C=C(/C#N)c2nc3ccccc3[nH]2)ccc1OCC(=O)Nc1ccccc1C,-21.8%
COC(=O)[C@@]1(Cc2ccccc2)[C@H]2c3cc(C(=O)N4CCCC4)n(Cc4cccc5ccccc45)c3C[C@H]2CN1C(=O)c1ccccc1,-9.1%
CS(=O)(=O)Nc1ccc(S(=O)(=O)Nc2nccs2)cc1,4.0%
O=C(NC(Cc1ccccc1)c1nc2ccccc2[nH]1)C1CC(=O)N(c2ccc3c(c2)OCCO3)C1 (stereo unspecified),-13.2%
CN(CC(=O)Nc1ccc(S(N)(=O)=O)cc1)c1ccccc1,-4.7%
O=C(c1ccccc1)c1ccc2nc[nH]c2c1,22.4µM*
O=C1c2cccnc2C(O)N1C1CCCCC1 (stereo unspecified),-7.4%
COc1ccc(OC)c(N(CC(=O)Nc2ccc3c(c2)OCCO3)S(C)(=O)=O)c1,-8.9%
CCCCCCCCNC(=O)c1cccnc1SCC(=O)Nc1ccccc1OC,-29.8%
Cc1cc(C)c(C)c(OCCOCCN2CCOCC2)c1,-5.3%
CC1CC(C)CN(CC(=O)N2c3ccccc3CCc3ccccc32)C1 (stereo unspecified),-16.1%
Cc1ccc2c(c1)C(C)(C)[C@]1(C)NC(=O)CCN21,-12.9%
Cc1cc(Cl)ccc1OCC(=O)Nc1ccccc1N1CCOCC1,-16.6%
O=C(Cc1ccccc1)NNC(=O)c1cccs1,-10.9%

# Following part.
SMILES,HPGD inh
O=C(NC1CCCCC1)c1ccccc1NC(=O)C1CC(=O)N(c2ccc(Cl)cc2)C1 (stereo unspecified),?
COc1cc(NC(=O)C2CCCN2C(=O)C2CCC(C)CC2)cc(OC)c1OC (stereo unspecified),-6.3%
COc1ccc(Cn2c(CCC(=O)N3CCN(c4ccccn4)CC3)nc3ncccc3c2=O)cc1,-12.8%
COc1ccc(S(=O)(=O)Nc2ccccc2C(=O)NCc2ccco2)cc1Br,?
O=c1[nH]c2ccccc2c(=O)n1Cc1ccco1,0.2%
COc1cc(C(=O)Nc2cccc(-c3nc4ccccc4o3)c2C)cc(OC)c1OC,-9.0%
CC(C)CNc1cc(=O)n(C)c(=O)n1C,1.4%
Cc1nc2cc(-c3cccc(F)c3)nn2c(C)c1CCC(=O)NC(C)c1ccc2c(c1)OCCO2 (stereo unspecified),-27.4%
COc1ccc([N+](=O)[O-])c2c(=O)ccoc12,-2.1%
CCCCNC(=O)OCC(CC)NC(=O)OC(C)C (stereo unspecified),-3.1%
COC(=O)c1nc2nc(C)cc(=O)n2[nH]1,-2.0%
Cc1ccc(/C=N/NC(=S)NC(C)C)o1,-11.9%
O=C(NCc1ccccc1)NC1(C(=O)N2CCOCC2)CCCCC1,-3.5%
CCCc1cc2c(n1Cc1ccc(OC)cc1)C(C)C1CN(C(=O)c3ccccc3)C(C)(C(=O)OC)C21 (stereo unspecified),-12.1%
CCSc1nnc(NC(=O)C(C)(C(F)(F)F)C(F)(F)F)s1,-15.5%
Cc1noc(C)c1S(=O)(=O)Nc1ccc(C(=O)NC2CCCCCC2)cc1,-9.6%
COc1ccc(-n2c(SCC(=O)c3ccc[nH]3)nnc2-c2ccccc2)cc1,-8.7%
CCCCNC(=S)NNC(=O)c1csc2ccccc12,-17.6%
CC(C)OC(=O)c1ccc(NC(=O)Cn2c(-c3nonc3N)nc3ccccc32)cc1,-5.9%
COCCN1C(=O)N[C@@H](c2ccco2)C(C(C)=O)=C1C,0.7%&-9.5%
COc1cc(S(=O)(=O)N2CCCCC2)ccc1NC(C)=O,2.6%
O=C(c1cnn(-c2ccccc2)c1)c1ccc2ccccc2c1O,-9.0%
O=C(O)CSc1nnc(Cn2nnc3ccccc32)n1CCc1ccccc1,?
CC1(C)C(=O)OC(c2c(F)c(F)c(F)c(F)c2F)C2(CCCCC2)C1=O (stereo unspecified),-1.4%
Cc1ccc(OP(=O)(Nc2c(C)n(C)n(-c3ccccc3)c2=O)Oc2ccc(C)cc2)cc1,-0.7%

# Other entries follow:
SMILES,HPGD inh
CCOC(=O)N1CCN(Cc2ccccc2Cl)CC1,-4.8%
CCC(=O)Nc1cccc(-c2nnc(-c3cccc(NC(=O)CC)c3)o2)c1,-19.4%
COc1cc2c3c(c1)C1(C(=O)N3C(C)(C)C=C2C)C(C#N)=C(N)Oc2cc(O)ccc21 (stereo unspecified),-16.9%
CCc1ccccc1-n1c(SCC(=O)N2CCCC2)nnc1-c1ccccn1,?
COc1ccc2[nH]c(C(=O)O)c(CCNC(C)=O)c2c1,?
COC(=O)c1ccc(CSc2nccn2C)cc1,-0.8%
N#Cc1nc(-c2ccccc2F)oc1N1CCCC1,?
N#C/C(=C\c1cc(Cl)cc(Cl)c1O)C(=O)NC1CCCCC1,?
Cc1cccc(NC(=S)NCCc2ccc(S(N)(=O)=O)cc2)c1C,-4.4%
O=C(COc1ccc2c3c(c(=O)oc2c1)CCC3)NC1CCCCC1,?
CCOC(=O)c1cc(=O)cc(C(=O)OCC)o1,-3.2%
CCc1nnc(NC(=O)CSc2nnc(Cc3ccccc3)n2-c2ccc(OC)cc2)s1,-9.4%
COc1ccc(NC(=O)CSc2c3c(nc4ccccc24)CCC3)c(OC)c1,-2.5%
COc1cccc(OC)c1OCCNCC1COc2ccccc2O1 (stereo unspecified),-11.3%&-3.6%
CCOC(=O)C(=O)c1csc(NC(=O)COc2ccc(N(C)S(=O)(=O)c3ccc(F)cc3)cc2)n1,?
O=C(CCCn1c(=S)[nH]c2ccccc2c1=O)N1CCOCC1,-21.4%
CCc1cc(C(=O)N/N=C/c2c(C)[nH]c3ccccc23)cs1,-15.2%
Cc1cc(NC(=O)CSc2ccc(Cl)cc2)no1,-0.9%
CCN(CC)C(=O)C1CCCN(C(=O)Nc2ccc3nsnc3c2)C1 (stereo unspecified),?
CCC1(C)N([O-])C(C)=C(c2ccccc2)[N+]1=O (stereo unspecified),1.3%
CC1/C=C/C=C/C=C/C=C/C=C/C=C/C=C/C(OC2OC(C)C(O)C(N)C2O)CC2O[C@@](O)(CC(O)CC(O)C(O)CCC(O)CC(O)CC(=O)OC(C)[C@H](C)C1O)CC(O)C2C(=O)O (stereo partly specified),?
CCOCCCNC(=O)CCS(=O)(=O)Cc1ccc(C)cc1,-9.4%

# Looked up one by one from the list above:
SMILES,HPGD inh
Cc1ccc2nsnc2c1S(=O)(=O)N1CCN(CCc2ccccc2)CC1,-1.5%
CN1CCN(C(=O)c2ccccc2N(Cc2ccccc2)S(=O)(=O)c2ccccc2)CC1,-7.7%
COc1ccc(OC)c(NC(=O)CC(Cc2ccccc2OC)C(=O)O)c1 (stereo unspecified),-5.5%
Cc1ccc(/C=N/NC(=S)NC(C)C)o1,-11.9%
Cc1cc(NC(=O)CS(=O)(=O)c2cn(Cc3ccc(F)cc3)c3ccccc23)no1,-8.9%
N#Cc1nc(-c2ccccc2F)oc1N1CCCC1,?
COc1ccc(Cn2c(CCC(=O)N3CCN(c4ccccn4)CC3)nc3ncccc3c2=O)cc1,-12.8%

# Source: PubChem
